Mtb growth = M. tuberculosis H37Rv growth inhibitors, H37Rv strain (AID 1626); M. tuberculosis H37Rv growth inhibition; higher % means a stronger effect; inhibition, % at 10 µM; hits with a dose series show IC50 in µM; 220,000 compounds, 0.95% hits;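 active means confirmed in a dose series; inconclusive means inhibition above 80% but not taken into the dose series; inactive means below 80% or under 30% at every dose of the series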;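 further: bacteria incubated seven days before Alamar blue readout; 0% = bacteria only wells and 100% = bacteria with antibiotic wells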
RecA intein inh = Mtb RecA intein splicing inhibition; cell-free RecA intein splicing, fluorescence; inhibition, %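 (about 9 µM by stock and volumes)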; 290,000 compounds, 0.75% hits; in the data active means inhibition above about 30%; inconclusive means no clear call, values can overlap the other calls;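 further: 0% = vehicle wells and 100% = reference inhibitor control wells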
Target sequence (P9WHJ3 whole entry, looked up): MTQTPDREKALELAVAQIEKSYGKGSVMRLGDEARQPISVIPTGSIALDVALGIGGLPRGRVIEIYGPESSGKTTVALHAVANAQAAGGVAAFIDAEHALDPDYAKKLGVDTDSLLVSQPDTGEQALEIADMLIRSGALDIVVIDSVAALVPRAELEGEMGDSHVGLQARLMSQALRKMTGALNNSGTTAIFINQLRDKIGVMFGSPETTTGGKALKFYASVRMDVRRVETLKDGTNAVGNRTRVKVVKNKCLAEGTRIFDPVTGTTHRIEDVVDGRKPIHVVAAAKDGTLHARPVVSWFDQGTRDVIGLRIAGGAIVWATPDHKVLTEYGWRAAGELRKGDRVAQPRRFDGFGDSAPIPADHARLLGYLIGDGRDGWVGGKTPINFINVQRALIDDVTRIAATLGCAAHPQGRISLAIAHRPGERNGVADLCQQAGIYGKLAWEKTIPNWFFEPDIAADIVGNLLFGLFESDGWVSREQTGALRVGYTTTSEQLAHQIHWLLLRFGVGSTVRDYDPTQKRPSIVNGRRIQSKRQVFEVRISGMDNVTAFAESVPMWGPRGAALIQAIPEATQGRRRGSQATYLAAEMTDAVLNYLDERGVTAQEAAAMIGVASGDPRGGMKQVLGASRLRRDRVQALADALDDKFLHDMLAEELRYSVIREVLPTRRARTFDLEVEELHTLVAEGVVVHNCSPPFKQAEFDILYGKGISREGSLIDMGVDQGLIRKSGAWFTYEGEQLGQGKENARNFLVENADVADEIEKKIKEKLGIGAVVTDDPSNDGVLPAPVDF
YopH PTP inh = YopH (Yersinia) phosphatase inhibition; 140,000 compounds, 0.16% hits; inhibition, %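 (about 10 µM by stock and volumes)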; fluorescence Ex485/Em525; AID 898;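 active means inhibition of 50% or more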;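 further: controls were vehicle for no effect and minimum signal wells for full effect; inactives centre near -20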
Arbovirus inh = arbovirus infection inhibition | arbovirus infection cell-based antiviral screen | inhibition, % at 10 µM | 200,000 compounds, 0.37% hits | AID 1251;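 active means inhibition from about 30%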;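 further: bluetongue infection of BSR cells; cell survival read as ATP light after 72 h; 0% = infected wells without compound and 100% = uninfected wells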
Mtb bLac sens = beta-lactam sensitization of Mtb H37Rv; M. tuberculosis H37Rv growth with meropenem, percent inhibition; hits of this screen are not shown here; 330,000 compounds, 0.27% hits; inhibition, % at 25 µM;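 active means about 74% or more and at least 40 points above the plate without the antibiotic, then above 30% in a dose series; inconclusive means first-round hits that could not be retested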;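 further: growth measured after seven days incubation then overnight dye step; 0% = bacteria only wells and 100% = bacteria with antibiotic; twin plates without the antibiotic show which effects depend on it; some results filed as inactive read as strong as hits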
Arbovirus inh repeat = also measured in Arbovirus inh; calls as there; inhibition, %; measured here: 10K subset replicate screen; many hits read low in the repeat;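 first of two repeat runs on a subset; 0% = infected and 100% = uninfected wells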
Numbers without * were called inactive; ? = inconclusive; . = not tested or not shown.

SMILES | Mtb growth | RecA intein inh | YopH PTP inh | Arbovirus inh | Mtb bLac sens | others
COc1ccc(CN(C(=O)CCC(=O)N2CCCCC2)c2nccs2)cc1OC | -2% | 4.0 | . | 9 | -9
COc1cc(S(=O)(=O)Nc2cccc3cn[nH]c23)c(OC)cc1C | . | -0.6 | . | . | -13
CCCCNC(=O)c1onc(CSc2ccc(Cl)cc2)c1C(=O)NCCCC | 2% | 0.5 | . | . | 9
COc1cccc(NC(=O)Nc2cc(C(=O)NC(C)C)ccc2N2CC3CC(C2)c2cccc(=O)n2C3)c1 (configuration not stated) | . | 0.3 | . | . | 4
O=C(Nc1ccccc1NS(=O)(=O)c1ccc(F)cc1)C1CCC1 | 2% | 1.2 | . | 1 | -8
COc1ccc(NC(=O)c2c(C)noc2-c2snnc2C)cc1 | -14% | -0.3 | . | . | -8
O=C(O)CC(C(=O)NCc1ccccc1)C1CCCO1 (configuration not stated) | . | -1.8 | -22 | 2 | -3
Cc1cccc(CCNCc2c(C(=O)O)c(C)n(-c3ccccc3)c2C)c1 | . | 7.7 | . | . | -4
Cc1nc(-c2ccccc2)sc1C(=O)/C=C/c1ccc(Cl)cc1 | 30% | 10 | 13 | -12 | 73
CCOC(CNC(=O)c1cc2c(=O)n(CC)c3ccccc3c2s1)OCC | . | 1.3 | . | . | -3
COc1ccc(NS(=O)(=O)c2ccc(O)c(NC(=O)c3ccc(S(=O)(=O)N4CCCC4)cc3)c2)cc1 | -15% | . | . | . | -10
O=C(NN1C(=O)/C(=C/c2ccc(O)cc2)SC1=S)c1ccccc1O | . | -0.5 | . | . | -1
CC(C)CCN1CCN(Cc2cccn2-c2cccnc2)CC1CCO (configuration not stated) | 0% | 1.5 | . | 8 | -8
O=C(NCCc1c[nH]c2ccccc12)N[C@@H](Cc1ccccc1)C(=O)O | . | -0.7 | . | . | -5
COc1ccc(CNS(=O)(=O)c2ccc(F)c(C(=O)Nc3ccc(OC)cc3)c2)cc1 | 2% | -1.2 | . | 4 | 1
Cc1ccc(C(=O)NC(=S)Nc2ccccc2C(F)(F)F)c(C)c1 | -1% | 1.4 | -3 | 7 | -7
CCOC(=O)C1CCN(S(=O)(=O)c2cccc(C(=O)Nc3ccccc3)c2)CC1 | . | 0.4 | . | . | 7
CCOC(=O)/C(O)=C(\C#N)c1nc2ccccc2[nH]1 | 12% | -16 | . | 5 | 8
OCCNc1ncnc2c1ncn2Cc1ccccc1 | -8% | 1.0 | -41 | 2 | 2
CCOC(=O)c1ccccc1NC(=S)N1CCN(C2CCCCC2)CC1 | 5% | 0.2 | . | 5 | -2
CCOC(=O)c1sc(S(C)(=O)=O)c2c1CC(C)(C)C/C2=N/O | -10% | -0.5 | . | . | 2
CN1CCN(c2nc(Cl)ncc2F)CC1 | 2% | -2.6 | . | 6 | -6
Cc1cc(C)c(NC(=O)CCCN2CCN(C)CC2)c(C)c1 | -3% | -2.2 | -16 | 4 | 1
COc1ccc2c(CC(=O)Nc3ccc(OC)c(S(=O)(=O)N4CCOCC4)c3)coc2c1 | 15% | 2.4 | -9 | -6 | 8
COCCCN(C(=O)c1cc(-c2ccco2)nc2ccccc12)c1c(N)n(Cc2ccccc2)c(=O)[nH]c1=O | . | 1.9 | . | . | 1

Four entries out of the list, ordered by heavy-atom count, ascending.
SMILES | Mtb growth | RecA intein inh | YopH PTP inh | Arbovirus inh | Mtb bLac sens | others
CCOC(=O)c1sc(S(C)(=O)=O)c2c1CC(C)(C)C/C2=N/O | -10% | -0.5 | . | . | 2
COc1ccc(NC(=O)c2c(C)noc2-c2snnc2C)cc1 | -14% | -0.3 | . | . | -8
Cc1ccc(C(=O)NC(=S)Nc2ccccc2C(F)(F)F)c(C)c1 | -1% | 1.4 | -3 | 7 | -7
CCOC(CNC(=O)c1cc2c(=O)n(CC)c3ccccc3c2s1)OCC | . | 1.3 | . | . | -3

The main list resumes; the 5 compounds before the break are reprinted first.
SMILES | Mtb growth | RecA intein inh | YopH PTP inh | Arbovirus inh | Mtb bLac sens | others
CCOC(=O)c1sc(S(C)(=O)=O)c2c1CC(C)(C)C/C2=N/O | -10% | -0.5 | . | . | 2
CN1CCN(c2nc(Cl)ncc2F)CC1 | 2% | -2.6 | . | 6 | -6
Cc1cc(C)c(NC(=O)CCCN2CCN(C)CC2)c(C)c1 | -3% | -2.2 | -16 | 4 | 1
COc1ccc2c(CC(=O)Nc3ccc(OC)c(S(=O)(=O)N4CCOCC4)c3)coc2c1 | 15% | 2.4 | -9 | -6 | 8
COCCCN(C(=O)c1cc(-c2ccco2)nc2ccccc12)c1c(N)n(Cc2ccccc2)c(=O)[nH]c1=O | . | 1.9 | . | . | 1
COc1ccc(CCNC(=O)CC(NS(=O)(=O)c2ccc(NC(C)=O)cc2)C(C)C)cc1OC (configuration not stated) | 2% | -0.3 | -29 | 1 | 6
CCCCN1C(=O)CC(Nc2ccc(CC)cc2)C1=O (configuration not stated) | 12% | 1.4 | -23 | 2 | 29
Cc1ccccc1-n1ncc(C(C)NS(=O)(=O)c2sccc2C)c1C (configuration not stated) | . | 0.9 | . | . | -4
COc1ccc(/C=N/NC(=O)c2ccc(NC(=O)c3cccc([N+](=O)[O-])c3)cc2)c(C(=O)O)c1OC | . | -3.4 | . | . | 0
COC(=O)Cc1cc(OC)c(OC)cc1Cc1cc(OC)c(OC)cc1CC(=O)OC | 8% | -3.4 | -23 | -4 | 0
O=C(NNC1=NCCC1)c1cccc(Br)c1 | -7% | -12 | -6 | 8 | 94
CC(C)c1[nH]c(=O)c(C#N)c2c1COC(C)(C)C2 | 2% | -1.3 | 13 | 4 | -8
Brc1ccc(C=Nc2ccc(Nc3ccccc3)cc2)s1 | ? | -0.6 | -26 | -24 | 3
CSc1nc2c(c(=O)[nH]1)C(c1ccccc1)C1=C(CC(C)(C)CC1=O)N2 (configuration not stated) | 8% | . | . | 4 | 0
CCOC(=O)Cn1c(=O)oc2cc(S(=O)(=O)Nc3cc(Cl)ccc3OC)ccc21 | 0% | 0.5 | -22 | 2 | -2 | Arbovirus inh repeat=0
COc1ccc(N2CCN(C(C)C(=O)N(C)Cc3ccccc3)CC2)cc1 (configuration not stated) | . | -4.6 | . | . | -7
Cc1ccc(CN=c2c([N+](=O)[O-])nn(-c3cccc(C)c3)n2O)cc1 | -1% | 5.3 | . | -6 | 95
O=C1CCCN1CCC1CCN(C2CC(=O)N(Cc3ccc(N4CCCC4=O)cc3)C2=O)CC1 (configuration not stated) | -4% | -1.1 | -12 | 7 | 0
CCN1CCN(CC#CCOc2ccccc2OC)CC1 | . | -0.4 | . | . | -4
Cc1cc(SC(C)C(=O)NCC(=O)Nc2ccc(F)c(F)c2F)nc2ccccc12 (configuration not stated) | 1% | -4.7 | -42 | -7 | -3
CCOC(=O)C(=Cc1ccccc1OC)C(=O)OCC | 2% | -2.5 | . | 2 | 3
CCOC(=O)CN1C(=O)SC(Nc2ccc(C)cc2)C1=O (configuration not stated) | -5% | 2.2 | . | 1 | 2
Brc1ccccc1Cn1cnc2ccccc21 | . | 2.7 | . | . | 3
COc1ccccc1C(=O)NC1CCN(C(=O)Nc2ccc(F)cc2)CC1 | . | -2.2 | . | . | 5
CCOC(=O)C1CCCN(c2ccc([N+](=O)[O-])c3nonc23)C1 (configuration not stated) | 1.5µM* | -3.0 | . | -1 | .
COc1ccc(C2CN=NC23CCc2ccccc2C3=O)cc1 (configuration not stated) | 2% | 8.6 | . | . | -8
COc1ccc(OC)c(NC(=O)COC(=O)c2ccc(S(=O)(=O)N3CCOCC3)cc2)c1 | -8% | 0.5 | -33 | 6 | -5 | Arbovirus inh repeat=2
O=C(NCCOc1ccccc1)C1CCC(=O)N(CCN2CCOCC2)C1 (configuration not stated) | . | 3.1 | . | . | -7
CNC(C)Cc1ccccc1Sc1ccc(O)cc1 (configuration not stated) | -10% | -7.4 | -13 | -11 | -13
N#Cc1c2c(c[nH]c1=O)CCN2Cc1ccccc1 | 7% | 0.2 | 3 | 8 | 2

Random excerpt: 7 records from the list, in no set order.
SMILES | Mtb growth | RecA intein inh | YopH PTP inh | Arbovirus inh | Mtb bLac sens | others
OCCNc1ncnc2c1ncn2Cc1ccccc1 | -8% | 1.0 | -41 | 2 | 2
O=C(NCCc1c[nH]c2ccccc12)N[C@@H](Cc1ccccc1)C(=O)O | . | -0.7 | . | . | -5
CCN1CCN(CC#CCOc2ccccc2OC)CC1 | . | -0.4 | . | . | -4
COc1ccc(N2CCN(C(C)C(=O)N(C)Cc3ccccc3)CC2)cc1 (configuration not stated) | . | -4.6 | . | . | -7
O=C(O)CC(C(=O)NCc1ccccc1)C1CCCO1 (configuration not stated) | . | -1.8 | -22 | 2 | -3
CCOC(=O)c1ccccc1NC(=S)N1CCN(C2CCCCC2)CC1 | 5% | 0.2 | . | 5 | -2
Cc1cc(SC(C)C(=O)NCC(=O)Nc2ccc(F)c(F)c2F)nc2ccccc12 (configuration not stated) | 1% | -4.7 | -42 | -7 | -3

Additional compounds
SMILES | Mtb growth | RecA intein inh | YopH PTP inh | Arbovirus inh | Mtb bLac sens | others
Cc1c(C(=O)Nc2ccc(F)cc2)cn2c(nc3ccccc32)c1C#N | -2% | -13 | . | . | 6
CSCSC1=C(C#N)C(c2ccc(Cl)cc2)C(C(C)=O)=C(C)N1 (configuration not stated) | 0% | . | -2 | -16 | -1
Cc1cccc(NC(=O)N2CCCC2)c1 | 0% | 1.9 | . | 4 | -3
COc1ccccc1NC(=O)CC(=O)c1cccc([N+](=O)[O-])c1 | . | -2.8 | . | . | 8
O=C(Nc1ccnn1C1CCN(C2CCC2)CC1)c1ccccc1Cl | . | -1.6 | . | . | -4
CCn1c(SCc2ccccc2)nnc1-c1ccc(S(=O)(=O)N2CCCCC2)cc1 | -6% | 4.1 | -34 | 5 | ?
COC(=O)c1cccc([N+](=O)[O-])c1CS(=O)(=O)c1ccc(C)cc1 | 6% | -2.1 | . | 5 | -3
S=c1[nH]nc(-c2ccncc2)n1Cc1ccco1 | -3% | 2.3 | -25 | 6 | -10
CCn1ncc(CN2CCC(C(=O)Nc3cccc(-c4cccc(F)c4)c3)CC2)c1C | . | -0.1 | . | . | 1
O=C(NCCN1CCOCC1)c1cc(-c2ccc(Cl)c(Cl)c2)on1 | . | -0.9 | . | . | 9
COc1ccc(CCNS(=O)(=O)c2ccc(S(=O)(=O)N3CCCC3)cc2)cc1OC | -5% | -0.7 | -15 | 8 | -9
CC1=CC(C)(C)Nc2ccc(OS(=O)(=O)c3ccc(C)cc3)cc21 | 6% | 11 | -28 | -1 | -7
CC(NC(=O)c1ccc([N+](=O)[O-])cc1[N+](=O)[O-])c1ccc(-c2ccccc2)cc1 (configuration not stated) | 2.5µM* | 1.1 | -9 | -22 | 46
O=C(NCCc1ccc(Cl)cc1)c1n[nH]c2ccccc12 | 10% | -0.1 | . | -3 | 5
Cc1nc2ccccn2c1C(=O)NN=C1CCCC1 | -1% | -2.0 | . | 3 | -5
Nc1nnc(SCC(=O)Nc2cccc(S(N)(=O)=O)c2)s1 | 5% | -0.1 | . | 8 | -9
O=C1/C(=C/c2ccc3c(c2)OCO3)Oc2cc(OCC(=O)N3CC(O)C[C@H]3C(=O)O)ccc21 (some centres not stated) | . | -6.1 | . | . | -15
COC(=O)c1sc2nc3c(cc2c1N)C(=O)CC(C)(C)C3 | -5% | 2.3 | -16 | -1 | -4
COc1ccc(S(=O)(=O)N2CCCCC2)cc1NC(=O)c1ccc2ccccc2n1 | 12% | -0.2 | -31 | -8 | -10
COc1ccc(NC(=O)c2c(-c3c(Cl)cccc3Cl)noc2C)cn1 | . | 0.6 | . | . | 3
O=C(/C=C/c1ccc2c(c1)OCO2)Nc1nc(-c2ccc(F)cc2F)cs1 | 4% | -4.3 | -2 | -36 | -6
Cc1nn(-c2ccccc2)c2c1cc1c(=O)n(C)c(=O)nc-1n2-c1ccccc1F | 0% | -22 | . | . | -6
COc1ccc(NC(=O)CN(C)C(=O)CCC(=O)c2ccc(C)cc2)cc1 | . | -1.9 | . | . | -1
CCOC(=O)c1c(N)nn(C(C)=O)c1-c1ccccc1 | -8% | -1.4 | 13 | -10 | -6
CC1CN(C2=NC(=O)/C(=C/c3ccncc3)S2)CC(C)O1 (configuration not stated) | -11% | -1.8 | . | . | 41
O=C(NCCO)/C(=C/c1ccc(Br)cc1)NC(=O)c1cccs1 | -7% | 1.1 | -12 | -1 | -5
Nc1nc2cc(S(=O)(=O)NC3=NCCCCC3)ccc2s1 | 2% | -4.0 | . | . | -13
C[n+]1ccc(/C=C/c2ccccc2O)c2ccccc21 | 1% | -3.3 | . | -9 | -5

These rows are one share of the data; rates above refer to the full screens.
